Source: PubChem (Johns Hopkins Ion Channel Center)
KCNQ2 block = KCNQ2 potassium channel inhibitors, primary screen, cell-based, CHO-K1, FluxOR thallium flux, B-score (AID 2156); 20 min; hits give low values; only compounds with negative scores are shown here; some inactives read as strong as hits; B-score at 10 µM; 1.1% of 310,000 active; Potassium voltage-gated channel subfamily KQT member 2 (Rattus norvegicus), O88943;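 active means fluorescence ratio B-score at most minus 3 library SDs, with starting brightness B-score within 2 library SDs, cut at about -5.5 in these data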
Target sequence (O88943 whole entry, looked up): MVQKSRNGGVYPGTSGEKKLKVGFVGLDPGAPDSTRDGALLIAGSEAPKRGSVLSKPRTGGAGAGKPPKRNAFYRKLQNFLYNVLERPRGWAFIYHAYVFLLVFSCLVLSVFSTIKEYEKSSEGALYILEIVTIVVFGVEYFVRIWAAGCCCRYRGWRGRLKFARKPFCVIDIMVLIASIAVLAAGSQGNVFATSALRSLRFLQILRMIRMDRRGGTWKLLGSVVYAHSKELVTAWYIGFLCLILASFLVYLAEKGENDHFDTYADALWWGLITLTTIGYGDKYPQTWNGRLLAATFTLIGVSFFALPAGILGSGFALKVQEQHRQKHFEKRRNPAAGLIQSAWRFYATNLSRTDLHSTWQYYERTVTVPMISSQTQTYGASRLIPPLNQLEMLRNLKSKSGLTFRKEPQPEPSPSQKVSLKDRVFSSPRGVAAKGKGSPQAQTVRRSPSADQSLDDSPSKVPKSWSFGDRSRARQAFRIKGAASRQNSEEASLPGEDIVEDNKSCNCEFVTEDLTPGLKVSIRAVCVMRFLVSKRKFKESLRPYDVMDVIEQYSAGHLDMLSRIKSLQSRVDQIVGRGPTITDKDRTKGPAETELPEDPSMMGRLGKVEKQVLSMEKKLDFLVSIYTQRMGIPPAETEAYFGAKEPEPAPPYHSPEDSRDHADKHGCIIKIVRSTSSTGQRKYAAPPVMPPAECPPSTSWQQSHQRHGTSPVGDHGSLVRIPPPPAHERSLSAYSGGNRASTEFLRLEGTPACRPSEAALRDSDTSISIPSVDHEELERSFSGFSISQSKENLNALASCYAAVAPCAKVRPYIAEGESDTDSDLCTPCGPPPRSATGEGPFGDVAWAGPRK
KCNQ2 block baseline = recorded beside KCNQ2 block, whose call it bears; B-score; measured here: initial fluorescence intensity artifact check;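 brightness before thallium and not channel activity; 0 = typical well and far values either way flag optical interference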
* hit, by the source's call; i = inactive. The list is partial, so the mix of outcomes need not match the whole.

mol,KCNQ2 block,KCNQ2 block baseline
Cc1oc2ccc(O)cc2c1C(=O)c1ccc(Br)cc1,i,-1.94
Cc1ccc(CCNC(=O)C2CCN(c3nn4c(=O)cc(C)nc4s3)CC2)cc1,i,1.29
Cc1ccc(C)c(NC(=O)C(Sc2ncnc3ccccc23)c2ccccc2)c1 (stereo unspecified),i,-1.04
Cn1c(N)c(C(=O)COC(=O)C2=COCCO2)c(=O)n(C)c1=O,i,2.23
O=C(NCc1ccc(OC(F)(F)F)cc1)C1CC(c2cccc(F)c2)=NO1 (stereo unspecified),i,0.63
COc1ccc(-c2nn(-c3ccccc3)cc2C(=O)NC(=S)NNC(=O)c2ccncc2)cc1,i,0.08
CCn1c(=S)sc2nc(C)sc21,i,-0.27
O=[N+]([O-])c1nn(-c2ccc3c(c2)OCCO3)n(O)c1=Nc1ccc(Cl)cc1,i,0.24
COC(=O)c1ccccc1NC(=O)Nc1cccnc1,i,0.62
CCOc1ccc(CNS(=O)(=O)c2cc(CN3C(=O)c4cccnc4C3=O)ccc2OC)cc1,i,-0.08
COc1cc(/C=C(/C(=O)c2cccs2)c2nc3ccccc3[nH]2)ccc1O,-7.63*,-0.18*
CC(C)(C)CC(C)(C)c1ccc(O)c(CN2CCN(CCC#N)CC2)c1,i,0.31
Cc1cc(-c2n[nH]c(=S)n2/N=C/c2sccc2C)n[nH]1,i,1.84
CC1CC(C)CN(CC(=O)N2CCc3[nH]c4ccccc4c3C2)C1 (stereo unspecified),i,-1.68
Nc1cc(=O)[nH]c(SCC(=O)N2CCN(S(=O)(=O)c3ccc4ccccc4c3)CC2)n1,i,-0.41
CC(=O)Oc1cc(C(C)C)c(OCCN(C)C)cc1C,i,-1.28
CC(NC(=O)C12CC3CC(CC(C3)C1)C2)C(=O)N/N=C/C1=C(N2CCOCC2)C(=C\c2ccccc2)/CC1 (stereo unspecified),i,0.57
COc1ccc(C(=O)C23CC4CC(C2)CC(C(=O)c2ccc(OC)cc2)(C4)C3)cc1,i,0.01
CCn1c(=O)c2cc(S(=O)(=O)NCCOc3ccccc3)ccc2n(CC)c1=O,i,-0.98
Cc1c(CCC(=O)N[C@@H](C)C(=O)O)c(=O)oc2cc3occ(-c4ccccc4)c3cc12,i,1.67
Cc1cc(NC(=O)c2sc(Nc3cccc(C(F)(F)F)c3)nc2N)no1,i,-2.18
CCOC(=O)c1ccc(NC(=O)CNC(=O)C2CCCCC2)cc1,i,0.03
CC(Oc1cccc(Cl)c1)C(=O)Nc1ccccc1C(=O)N1CCCCC1 (stereo unspecified),i,1.02
CCOC(=O)C(Cc1ccc(OC)c([N+](=O)[O-])c1)NC(=O)CCC(=O)Nc1ccc(C)cc1 (stereo unspecified),i,0.01

3 entries out of the list, arranged by formula weight, rising.
mol,KCNQ2 block,KCNQ2 block baseline
Cc1cc(NC(=O)c2sc(Nc3cccc(C(F)(F)F)c3)nc2N)no1,i,-2.18
CC(Oc1cccc(Cl)c1)C(=O)Nc1ccccc1C(=O)N1CCCCC1 (stereo unspecified),i,1.02
CCn1c(=O)c2cc(S(=O)(=O)NCCOc3ccccc3)ccc2n(CC)c1=O,i,-0.98

Remaining list, next part:
mol,KCNQ2 block,KCNQ2 block baseline
COc1ccc(Cl)cc1NC(=S)NCc1ccccn1,i,2.3
O=C(Nc1nc2ccccc2s1)C1CCCN1S(=O)(=O)c1ccc(Cl)cc1 (stereo unspecified),-5.59*,-0.59*
O=C(CCn1cnc(-c2ccccc2)c1-c1ccccc1)N/N=C/c1ccc(O)cc1,i,2.42
CC(C)CCN1CC(=O)N2Cc3[nH]c4ccccc4c3C[C@H]2C1=O,-7.16*,0.54*
CCCCCn1c(=O)[nH]c2cc(C(=O)N3CCN(c4ccc(C(C)=O)cc4)CC3)ccc2c1=O,i,-1.17
CC(=O)NC(NC(=S)Nc1ccc(N=Nc2ccccc2C)cc1C)C(Cl)(Cl)Cl (stereo unspecified),i,0.83
CCOC(=O)C1(CCOc2ccccc2)CCN(Cc2cnc(C)s2)CC1,i,-0.1
O=c1nc2n(c3sc4c(c13)CCCC4)C(CBr)CS2 (stereo unspecified),i,-1.18
COc1ccc(OC)c(C(=O)CSc2nnc(Cc3cccs3)n2CCc2ccccc2)c1,-7.07*,0.91*
Cc1cc(NC(=O)c2noc3c2CCCC3)n(-c2ccccc2)n1,i,0.69
CCOC(=O)Cn1ncc(-c2ccccc2)c1N,i,1.27
Cc1ccccc1CC(=O)N1CCCC(CNC(=O)c2ccc(F)cc2)C1 (stereo unspecified),i,-1.12
Cc1ccc(NC(=O)COC(=O)CNC(=O)c2cccc([N+](=O)[O-])c2)cc1S(=O)(=O)N1CCCCCC1,i,-0.08
Cc1ccc(S(=O)(=O)N2CCc3c2cc([N+](=O)[O-])cc3[N+](=O)[O-])cc1,i,1.14
COc1ccc(NC(=O)CN(c2cc(C)cc(C)c2)S(=O)(=O)c2c(C)noc2C)cc1OC,i,0.16
Cc1ccc(C)c(N2CCN(CC3CC=CCC3)CC2)c1 (stereo unspecified),i,0.85

Filtered by structure, the entries above containing an aryl thioether with sulfur outside any ring.
mol,KCNQ2 block,KCNQ2 block baseline
Cc1ccc(C)c(NC(=O)C(Sc2ncnc3ccccc23)c2ccccc2)c1 (stereo unspecified),i,-1.04
Nc1cc(=O)[nH]c(SCC(=O)N2CCN(S(=O)(=O)c3ccc4ccccc4c3)CC2)n1,i,-0.41
COc1ccc(OC)c(C(=O)CSc2nnc(Cc3cccs3)n2CCc2ccccc2)c1,-7.07*,0.91*

Two records picked at random from the list so far, as already listed:
mol,KCNQ2 block,KCNQ2 block baseline
Cc1ccccc1CC(=O)N1CCCC(CNC(=O)c2ccc(F)cc2)C1 (stereo unspecified),i,-1.12
Cc1ccc(C)c(N2CCN(CC3CC=CCC3)CC2)c1 (stereo unspecified),i,0.85

The list goes on.
mol,KCNQ2 block,KCNQ2 block baseline
CCOC(=O)c1ccc(NC(=O)NC2CC3CCC(C2)N3Cc2nnnn2C(C)(C)C)cc1 (stereo unspecified),i,-0.02
O=C(Nc1cn(-c2ccccc2)nc1-c1ccc(Cl)cc1)c1ccccc1,i,-0.21
CCCCNC(=O)COC(=O)CCC(=O)c1ccc(Cl)cc1,i,-1.31
C[n+]1ccc(C(=O)NCCC[N+](C)(C)C)cc1/C=N/O,i,7.11
COc1ccccc1NC(=O)c1cccc(S(=O)(=O)N2CCN(Cc3ccccc3)CC2)c1,i,1.1
CCCCCCCNC(=O)c1cc(-c2ccncc2)nc2ccccc12,i,-0.14
Cc1ccc(/C([O-])=C(/C(=S)NCc2ccc3c(c2)OCO3)[n+]2ccc(N(C)C)cc2)c(C)c1,i,1.34
COc1ccc2c(c1)C(c1ccc(N3CCOCC3)cc1)=NNC(c1cccnc1)=N2,i,-1.64

Single entries from the list:
`O=C(Nc1cn(-c2ccccc2)nc1-c1ccc(Cl)cc1)c1ccccc1` in KCNQ2 block baseline shows -0.21
`C[n+]1ccc(C(=O)NCCC[N+](C)(C)C)cc1/C=N/O` in KCNQ2 block baseline shows 7.11

(next part)
mol,KCNQ2 block,KCNQ2 block baseline
S=C(NCC1CCCO1)NC1CCCC1 (stereo unspecified),i,0.46
COc1ccc(CCCC(=O)NC(C)c2ccccc2)cc1 (stereo unspecified),i,0.25
O=C(CCS(=O)(=O)c1ccc(Br)cc1)NCc1ccc(F)cc1,i,0.56
CC(OC(=O)/C=C/c1cccs1)C(=O)NC1CCCCC1C (stereo unspecified),i,0.76
COCC(=O)Nc1nc2ccc(C)cc2s1,i,-1.98
O=C(Nc1ccccc1)C1=C[C@H](c2ccccc2)C[C@H](OCCCCO)O1,i,-1.14
COC(=O)C1=C(O)/C(=C\c2cc(C)n(-c3ccccc3C)c2C)N=C1C,i,-0.03
O=C(N/N=C/C=C\c1ccccc1[N+](=O)[O-])c1cc(-c2ccccc2)nc2ccccc12,i,-0.84
CCOc1ccccc1NC(=O)N1CCCC1C(=O)NCc1cccs1 (stereo unspecified),i,0.09
CNC(=O)C(C#N)(Cc1cc(C(C)=O)ccc1OC)Cc1cc(C(C)=O)ccc1OC,i,-2.33
C=CCOc1cccc(C2C(C(=O)c3ccco3)=C(O)C(=O)N2Cc2ccco2)c1 (stereo unspecified),i,-0.54
CC(=O)N=c1sccn1CC(O)c1ccc(Br)cc1 (stereo unspecified),i,-1.47
Cc1cc(C)n(S(=O)(=O)c2ccccc2[N+](=O)[O-])n1,i,-0.31
CCCCN(C(=O)CNC(=O)c1cccs1)C(C(=O)NC1CCCC1)c1ccncc1 (stereo unspecified),i,0.05
Cc1ccnc(N2C(=O)c3ccccc3C2Nc2ccccc2Cl)c1 (stereo unspecified),i,-0.67
O=C(c1ccccc1)C(C(=O)N1CCc2ccccc2C1)n1ccccc1=O (stereo unspecified),i,1.14
NC(=O)OCC(COC(N)=O)c1ccccc1,i,1.07
CC(C)c1nnc(SCc2ccc(CSc3nnc(C(C)C)n3N)cc2)n1N,i,1.04
Cc1nc(-n2nnc3cc(C)c(C)cc32)c2c3c(sc2n1)CCCC3,i,-1.15
NC(=O)c1sc2nc3c(c(-c4ccccc4)c2c1N)CCC3,i,0.55
CC1CCN(C(=O)CSc2nnc(CNC(=O)c3c(F)cccc3F)o2)CC1,i,-0.08
COc1ccc(N2CCN(C(=O)CSc3nnc(NC(=O)C4CC4)s3)CC2)cc1,i,-0.3
CC1(C)CC(=O)C2=C(C1)N(c1ccccc1)C(=O)CC2c1ccsc1 (stereo unspecified),i,0.01
CCOc1ccc(C(=O)C2CCN(CC(=O)Nc3ccccc3N3CCOCC3)CC2)cc1,i,1.49
O=C(c1cccc(F)c1F)N1CCCc2ccccc21,i,1.31
CCOc1cc(CNCc2cccs2)cc(Br)c1OCC,i,1.5
O=C(Nc1cccc(-c2nnc(-c3ccccc3)o2)c1)c1ccc(Br)o1,i,-1.02
N#C/C(=C(/O)COC(=O)c1ccc(Cl)c(S(=O)(=O)N2CCOCC2)c1)c1nc2ccccc2[nH]1,i,1.05
COC(=O)c1cn(NC(=O)Cc2c(F)cccc2Cl)c(=O)c2ccccc12,i,0.04
O=C(NC(=S)Nc1ccc2[nH]c(=O)[nH]c2c1)c1cccc(F)c1,i,-1.12
COc1ccc(Oc2c(C=O)c3ccccc3n2C)cc1,i,-1.82
CCN1CCN(C(=O)CCc2nnc(CCc3ccc(OC)cc3)o2)[C@@H](C)C1=O,i,-0.12
CCOC(=O)c1ccc(NC(=S)N2CCC(C(N)=O)CC2)cc1,i,1.59
COc1ccc(N2CCN(C(=O)COC(=O)c3cc(S(=O)(=O)N(C)C)ccc3N3CCCC3)CC2)cc1,i,0.04
C/C(=N\NC(=O)CNC(=O)c1ccncc1)c1ccc(C)cc1,i,1.01
CC(C)Oc1ccc(C(=O)NC2(C(F)(F)F)NC(=O)N(CCCc3ccccc3)C2=O)cc1 (stereo unspecified),i,1.03
COc1cc(NC(=O)c2ccc(-c3ccc(Br)cc3)o2)ccc1NC(=O)C(C)C,i,-0.02
COC(=O)C1=C(C)N(Cc2ccco2)C(=O)/C1=C\c1ccc(N(C)C)cc1,i,4.54
COc1ccc(C2/C=C\CN(C(=O)c3ccc(C)cc3)[C@H](Cc3ccccc3)C(=O)N2Cc2ccc(F)cc2)cc1 (stereo partly specified),i,0.09
CC1=C(C(=O)Nc2ccccc2)C(c2cccc([N+](=O)[O-])c2)Nc2nc3ccccc3n21 (stereo unspecified),i,1.2
O=C(CC1SC(=NCCc2ccccc2)N(/N=C/c2cccs2)C1=O)Nc1ccc(Cl)cc1 (stereo unspecified),i,0.06
O=C(O)Cc1ccc2ocnc2c1,i,0.84
Cn1c(C(=O)NCC2CCCO2)cc2c(=O)n3ccccc3nc21 (stereo unspecified),i,-0.83
O=C(O)CC/C(=C\c1cccc(NC(=O)c2ccccc2Cl)c1)c1nc2ccccc2s1,i,-0.14
Cc1ccc(CSCC(=O)NCc2ccco2)cc1,i,-0.04
Cc1ccc(S(=O)(=O)Nc2ccc(N3CCOCC3)nc2)cc1,i,0.95
COC(=O)c1cc(OC(=O)CCc2ccc(OC)c(OC)c2)cc(C(=O)OC)c1,i,-1
CCCCNC(=O)C(Sc1ccccc1)c1ccccc1 (stereo unspecified),i,-0.57
CCOc1cc(/C=N/NC(=O)c2cc(C)[nH]n2)ccc1OC(=O)c1ccc([N+](=O)[O-])cc1,i,0.15
COC(=O)c1cc(OC)c(OC)cc1NC(=O)Nc1cccc(C(C)=O)c1,i,-1.12
O=S(=O)(N/N=C/c1ccc(Cl)cc1)c1ccc(Cc2ncc(C(F)(F)F)cc2Cl)s1,-6.15*,-0.18*
CCOc1ccc(/C=C/C(O)=C2/C(=O)NC3(C)CC2c2ccccc2O3)cc1OC (stereo unspecified),i,-0.7
CN(CCCN1CCOCC1)C(=O)c1cc(COc2cccc(C(F)(F)F)c2)on1,i,-0.67
CN(C(=O)CSc1nnc(-c2ccccc2)o1)c1c(N)n(Cc2ccccc2)c(=O)[nH]c1=O,i,0.02
Cc1ccc(N2C(=O)Nc3ccc(Br)cc3C2(O)C(=O)NCCN(C)C)cc1C (stereo unspecified),i,-1.25
COc1ccc(-c2cc(=O)oc3cc(OCC(=O)NCC(O)c4ccccc4)ccc23)cc1 (stereo unspecified),i,-0.18
O=C(CSc1nnc(-c2ccc(O)cc2)o1)Nc1cccc(O)c1,i,-3.25
